From PubChem BioAssay
PABP polyA inh: blocks human PABP binding to poly(A) RNA; fluorescence polarization; inhibition, % at 35 µM; 290,000 tested, 1% active;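 active = 50% or more with normal probe brightness, or confirmed in later tests; about a fifth of its hits are not listed in these tables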;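 note: calls also rest on retests at 20 µM and on dose response follow-up; controls were probe without protein and protein plus probe with vehicle; some compounds called inactive have numbers as strong as hits; many hits fall short of the cut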
Target sequence (P11940 whole entry, looked up): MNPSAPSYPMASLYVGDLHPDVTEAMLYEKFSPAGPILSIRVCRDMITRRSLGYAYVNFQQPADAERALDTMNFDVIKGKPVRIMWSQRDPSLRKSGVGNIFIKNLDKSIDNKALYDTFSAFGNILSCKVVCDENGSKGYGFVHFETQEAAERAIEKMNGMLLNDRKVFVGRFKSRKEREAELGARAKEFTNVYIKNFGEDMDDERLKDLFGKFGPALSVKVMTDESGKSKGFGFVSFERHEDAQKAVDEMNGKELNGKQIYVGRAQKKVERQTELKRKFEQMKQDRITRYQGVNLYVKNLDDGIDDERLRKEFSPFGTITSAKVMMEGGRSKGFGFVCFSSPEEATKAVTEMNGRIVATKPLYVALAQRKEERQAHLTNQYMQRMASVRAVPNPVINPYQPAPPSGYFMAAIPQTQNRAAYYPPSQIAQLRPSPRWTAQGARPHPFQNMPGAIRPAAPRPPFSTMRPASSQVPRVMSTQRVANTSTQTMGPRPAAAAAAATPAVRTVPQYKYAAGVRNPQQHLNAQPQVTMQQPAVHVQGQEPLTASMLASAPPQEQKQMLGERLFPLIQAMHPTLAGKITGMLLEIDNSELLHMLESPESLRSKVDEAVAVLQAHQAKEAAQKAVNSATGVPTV
Yeast UUG start: alters start codon recognition fidelity in yeast | S. cerevisiae UUG-firefly luciferase reporter, luminescence/redox ratio | activity score, % at 18.7 µM | 350,000 tested, 0.13% active | AID 602363;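 active = replicate mean at a twofold rise or more, about +100% in these data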;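 note: firefly luciferase made from a UUG start codon reports start codon fidelity; reporter light over untreated wells divided by growth signal over untreated wells; some hits fall short of that in this replicate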
Rce1 inh: inhibitors of yeast Ras-converting enzyme; AID 2563; calls only; 290,000 tested, 0.27% active; yeast membranes, quenched prenylated peptide cleavage fluorescence; Q03530;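 active = fall in fluorescence gain of 50% or more versus controls, with final raw signal at or below 3038400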;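 note: plate controls were neutral control wells for no effect and wells lacking membranes for full effect; tested at 10 µM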
Env fusion inh: HIV envelope-mediated fusion inhibition. 360,000 tested, 1.1% active. HeLa-JRFL Env/CEM21 cell fusion, luciferase. inhibition, % at 12.3 µM;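 active = mean replicate inhibition score of at least 50 and every replicate individually at or above 50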;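 note: 0% = plate neutral controls and 100% = maraviroc near 300 nM; one replicate is shown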
eIF4H inh: inhibitors of RNA binding by human eIF4H; Q15056; AID 2012; eIF4H fluorescence polarization binding assay; 290,000 tested, 0.94% active; inhibition, % at 35 µM;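 active = 50% or more with normal probe brightness, or confirmed in later tests; about a fifth of its hits are not listed in these tables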;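 note: calls also rest on retests at 20 µM and on dose response follow-up; 0% = protein and probe with vehicle and 100% = probe without protein; strong numbers were not always called active; many hits fall short of the cut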
CSC inhib: cancer stem cell inhibition; cancer stem cell-like cells viability, luminescence; inhibition, % at 7.5 µM; 300,000 tested, 1.1% active;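 active = mean at 75% or more and at least half the replicates too; tested in HMLE shEcad cells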;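 note: 0% = median of negative and 100% = median of positive control wells; the first replicate is given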
MT1-MMP act inh: inhibitors of human MT1-MMP activation; P50281; HT1080 RFP-PRO-GFP cells, GFP/RFP ratio fluorescence, overnight; percent of plate control window, DMSO zero; GFP/RFP ratio change, % at 20 µM; AID 651647; 360,000 tested, 0.061% active;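 active = GFP/RFP ratio change of at least 30% with cell ATP level not reduced by more than half and red fluorescence within 50% of control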; note: strong numbers were not always called active
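Assay system: RFP-PRO-GFP reporter HT1080 cells; read-out basis: GFP/RFP fluorescence ratio; benchmarks: DMSO wells and RFP-L50D-GFP cells; doses: 20 µM single dose, 1% DMSO; schedule: overnight cell settling, then overnight compound exposure, 37 °C, 5% CO2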
MT1-MMP act inh RFP: second read-out of MT1-MMP act inh, no call of its own (marks repeat the call); RFP signal change, %; measured here: RFP expression control read;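 0 = vehicle wells; hits needed this value within 50% of zero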
* marks the source's active call; other numbers are inactive results.

How did O=C1NC(c2ccccc2)C(C(=O)c2cccs2)=C1O (stereo not given) do in these assays?
PABP polyA inh: 5; Rce1 inh: inactive; Env fusion inh: -24; eIF4H inh: -9; CSC inhib: -11; MT1-MMP act inh: 4; MT1-MMP act inh RFP: 8

Results for Cc1cc(C)c2[nH]c(=O)c(CN(C(=O)C3CCCO3)C3CCCC3)cc2c1 (stereo not given) ?
PABP polyA inh: 0; Rce1 inh: inactive; eIF4H inh: -4

What do the screens show for `Cc1oc2c(C)c3oc(=O)c(CCC(=O)NCCCn4ccnc4)c(C)c3cc2c1C`?
PABP polyA inh: -23; Yeast UUG start: -5; Rce1 inh: inactive; eIF4H inh: -9; CSC inhib: -7; MT1-MMP act inh: -1; MT1-MMP act inh RFP: -6

What do the screens show for `Cc1cccc(C(=O)O/N=C(/c2ccccc2)c2ccncc2)c1`?
PABP polyA inh: 0; Yeast UUG start: -9; Rce1 inh: inactive; Env fusion inh: 24; eIF4H inh: -2; CSC inhib: -8; MT1-MMP act inh: 0; MT1-MMP act inh RFP: 3

What do the screens show for `Cc1ccc2c(c1)C(c1ccccc1)CC(=O)O2` (stereo not given)?
PABP polyA inh: 4; Yeast UUG start: -6; Rce1 inh: inactive; Env fusion inh: -12; eIF4H inh: 6; CSC inhib: -3; MT1-MMP act inh: 0; MT1-MMP act inh RFP: 4

Results for O=C(CN(C(=O)c1csnn1)c1cccc2ccccc12)NCc1ccccc1 ?
PABP polyA inh: 9; Yeast UUG start: -6; Rce1 inh: inactive; Env fusion inh: 13; eIF4H inh: -5; CSC inhib: -6; MT1-MMP act inh: 0; MT1-MMP act inh RFP: -3

What do the screens show for `O=c1oc2ccccc2n1Cn1c(=O)oc2ccccc21`?
PABP polyA inh: 3; Yeast UUG start: -24; Rce1 inh: inactive; Env fusion inh: 5; eIF4H inh: -1; CSC inhib: -13; MT1-MMP act inh: 0; MT1-MMP act inh RFP: 2

What do the screens show for `O=C(/C=C/c1ccc2ccccc2n1)N1CCN(S(=O)(=O)c2ccc(F)cc2)CC1`?
PABP polyA inh: -1; Rce1 inh: inactive; Env fusion inh: 18; eIF4H inh: 12; CSC inhib: 23; MT1-MMP act inh: -26; MT1-MMP act inh RFP: -17

What do the screens show for `Cc1ccc(C)c(Cn2c(=O)n(CCCC(=O)NCc3ccco3)c(=O)c3ccccc32)c1`?
PABP polyA inh: -5; Rce1 inh: inactive; eIF4H inh: 1; CSC inhib: -19; MT1-MMP act inh: -2; MT1-MMP act inh RFP: -3

What do the screens show for `Cc1ccccc1C(O)c1ccncc1` (stereo not given)?
PABP polyA inh: -2; Rce1 inh: inactive; eIF4H inh: -5; CSC inhib: -9; MT1-MMP act inh: -4; MT1-MMP act inh RFP: 0

Results for COc1ccc(-c2cc(C)no2)cc1S(=O)(=O)N1CCCN(Cc2ccccc2Cl)C1 ?
PABP polyA inh: 18; Rce1 inh: inactive; Env fusion inh: -2; eIF4H inh: -4; CSC inhib: 6; MT1-MMP act inh: -5; MT1-MMP act inh RFP: 0

How did CC(C)(C)OC(=O)NNc1c2ccccc2nc2ccccc12 do in these assays?
PABP polyA inh: -2; Yeast UUG start: 15; Rce1 inh: inactive; Env fusion inh: 1; eIF4H inh: -4; CSC inhib: 0; MT1-MMP act inh: 3; MT1-MMP act inh RFP: -16

Results for CSC1=NS(=O)(=O)c2c(C)nn(C)c2S1 ?
PABP polyA inh: 4; Yeast UUG start: 8; Rce1 inh: inactive; Env fusion inh: 8; eIF4H inh: 5; CSC inhib: 5; MT1-MMP act inh: -3; MT1-MMP act inh RFP: -2

Results for Cc1ccc(S(=O)(=O)N2CCN(C(=O)c3ccnn3C)CC2)cc1C ?
PABP polyA inh: 10; Yeast UUG start: 2; Rce1 inh: inactive; eIF4H inh: 8; CSC inhib: -20; MT1-MMP act inh: -5; MT1-MMP act inh RFP: -1

What do the screens show for `COc1ccccc1N1CCN(C2CCCN(Cc3ccccc3OCCO)C2)CC1` (stereo not given)?
PABP polyA inh: -8; Yeast UUG start: -1; Rce1 inh: inactive; Env fusion inh: -2; eIF4H inh: 0; CSC inhib: 9; MT1-MMP act inh: -2; MT1-MMP act inh RFP: 4

How did O=C(c1ccccc1)N1CCN(c2ccc(NCc3ccc4c(c3)OCO4)cc2)CC1 do in these assays?
PABP polyA inh: -2; Yeast UUG start: -7; Rce1 inh: inactive; eIF4H inh: 2; CSC inhib: 55; MT1-MMP act inh: -7; MT1-MMP act inh RFP: -20

Results for O=S(=O)(NC(=S)Nc1ccccc1)c1ccc(F)cc1 ?
PABP polyA inh: -2; Yeast UUG start: -25; Rce1 inh: inactive; Env fusion inh: -6; eIF4H inh: -13; CSC inhib: -14; MT1-MMP act inh: 0; MT1-MMP act inh RFP: 7

Results for CC(C)NC(=O)NC(=O)CSc1nnc(COc2ccccc2F)n1C(C)C1CC2CCC1C2 (stereo not given) ?
PABP polyA inh: 0; Yeast UUG start: -19; Rce1 inh: inactive; eIF4H inh: -10; MT1-MMP act inh: -1; MT1-MMP act inh RFP: 3

How did C[C@H]1CCC[C@]2(O[C@@H](CCO)C[C@@H](O)[C@@H]2O)O1 do in these assays?
Yeast UUG start: -10; Rce1 inh: inactive; Env fusion inh: -5; CSC inhib: -18; MT1-MMP act inh: -1; MT1-MMP act inh RFP: 3

Results for COc1ccc(N2CCN(C(=S)Nc3ccc(C)cc3C)CC2)cc1 ?
PABP polyA inh: -2; Rce1 inh: inactive; Env fusion inh: 2; eIF4H inh: -11; MT1-MMP act inh: -2; MT1-MMP act inh RFP: -1

Results for O=C(N/N=C/c1ccccc1C(=O)O)c1cccc(S(=O)(=O)Nc2cc(Cl)ccc2Cl)c1 ?
PABP polyA inh: 17; Yeast UUG start: -4; Rce1 inh: inactive; Env fusion inh: 4; eIF4H inh: -10; CSC inhib: 3; MT1-MMP act inh: 7; MT1-MMP act inh RFP: 8

How did CC1CCC2(CC1)SCC(=O)N2c1ccccc1 (stereo not given) do in these assays?
PABP polyA inh: -12; Yeast UUG start: -19; Rce1 inh: inactive; eIF4H inh: -2; CSC inhib: -9; MT1-MMP act inh: 5; MT1-MMP act inh RFP: 1

Results for CCOc1cc(C(=O)Nc2cccc(C(C)=O)c2)ccc1OCC(=O)N1CCCCC1 ?
PABP polyA inh: 4; Rce1 inh: inactive; Env fusion inh: 5; eIF4H inh: -2; CSC inhib: 13; MT1-MMP act inh: -4; MT1-MMP act inh RFP: 1

Results for O=C(NCc1cn(-c2ccccc2)nc1-c1ccccc1)c1cccc([N+](=O)[O-])c1 ?
PABP polyA inh: -8; Yeast UUG start: 11; Rce1 inh: inactive; Env fusion inh: -10; eIF4H inh: 9; CSC inhib: 14; MT1-MMP act inh: -3; MT1-MMP act inh RFP: -7

How did Cc1ccc(C)c(C(=O)CCC(=O)OCn2nnc3ccccc3c2=O)c1 do in these assays?
Yeast UUG start: -12; Env fusion inh: 7; CSC inhib: -2; MT1-MMP act inh: -2; MT1-MMP act inh RFP: 2

Results for CC1(C)C(=O)C2(CCCCC2)C(=O)OC1c1cccc([N+](=O)[O-])c1 (stereo not given) ?
PABP polyA inh: -10; Yeast UUG start: -11; Env fusion inh: 5; eIF4H inh: -7; CSC inhib: -10; MT1-MMP act inh: -1; MT1-MMP act inh RFP: 3

What do the screens show for `OCCCc1nc2n(n1)C(c1ccccc1)C=C(c1ccccc1)N2` (stereo not given)?
PABP polyA inh: 21; Yeast UUG start: -10; Rce1 inh: inactive; eIF4H inh: 7; CSC inhib: -7; MT1-MMP act inh: -10; MT1-MMP act inh RFP: 2

How did COc1ccc(S(=O)(=O)N2CCCCCC2)cc1C(=O)N(C)Cc1ccc(C(C)(C)C)cc1 do in these assays?
PABP polyA inh: 32; Yeast UUG start: 11; Rce1 inh: inactive; eIF4H inh: 2; CSC inhib: 13; MT1-MMP act inh: -5; MT1-MMP act inh RFP: -10

What do the screens show for `CCc1ccccc1NC(=O)CN(C)S(=O)(=O)c1ccc2c(c1)c(=O)n(C)c(=O)n2C`?
PABP polyA inh: 2; Yeast UUG start: -5; Rce1 inh: inactive; Env fusion inh: -7; eIF4H inh: 0; CSC inhib: 0; MT1-MMP act inh: 0; MT1-MMP act inh RFP: 4

What do the screens show for `CCc1nnc(NC(=O)CSc2nnc3c(C)cc4c(C)ccc(C)c4n23)s1`?
PABP polyA inh: -8; Rce1 inh: inactive; Env fusion inh: -68; eIF4H inh: -8; CSC inhib: 64; MT1-MMP act inh: -11; MT1-MMP act inh RFP: -16

What do the screens show for `COCCNC(=S)Nc1ccc(S(=O)(=O)Nc2ncccn2)cc1`?
PABP polyA inh: -2; Rce1 inh: inactive; Env fusion inh: -16; eIF4H inh: -14; CSC inhib: -7; MT1-MMP act inh: 4; MT1-MMP act inh RFP: 2

Results for COc1cccc(CNC(=O)c2ccccc2NC(=O)C2=C(C)OCCS2)c1 ?
PABP polyA inh: -5; Yeast UUG start: -10; Rce1 inh: inactive; Env fusion inh: -2; eIF4H inh: -11; CSC inhib: -21; MT1-MMP act inh: 0; MT1-MMP act inh RFP: -1

How did O=C(Nc1cccc(S(=O)(=O)N2CCCCC2)c1)c1ccc([N+](=O)[O-])o1 do in these assays?
PABP polyA inh: -5; Yeast UUG start: -24; Rce1 inh: inactive; Env fusion inh: -121; eIF4H inh: 5; CSC inhib: 78*; MT1-MMP act inh: -2; MT1-MMP act inh RFP: -16

Results for Cc1onc(-c2c(Cl)cccc2Cl)c1C(=O)Nc1ccc(C(N)=O)cc1 ?
PABP polyA inh: 8; Yeast UUG start: -16; Env fusion inh: 5; eIF4H inh: -15; CSC inhib: -8; MT1-MMP act inh: -1; MT1-MMP act inh RFP: 2

Results for Cc1ccc(NC(=O)C(C)Sc2nnc3ccccn23)cc1 (stereo not given) ?
Yeast UUG start: -16; CSC inhib: -30; MT1-MMP act inh: 3; MT1-MMP act inh RFP: -1

How did Cc1cccc(C(=O)Nc2cccc(C(=O)N/N=C/c3ccccn3)c2)c1 do in these assays?
PABP polyA inh: 7; Yeast UUG start: -8; Rce1 inh: inactive; Env fusion inh: -10; eIF4H inh: 13; CSC inhib: -5; MT1-MMP act inh: -5; MT1-MMP act inh RFP: 1

What do the screens show for `Cc1onc(-c2c(Cl)cccc2Cl)c1C(=O)NN1CCCCCC1`?
PABP polyA inh: -9; Yeast UUG start: -4; Rce1 inh: inactive; Env fusion inh: -3; eIF4H inh: 1; CSC inhib: -3; MT1-MMP act inh: -6; MT1-MMP act inh RFP: 2

How did COc1ccc(Oc2nc3ccccc3n(C)c2=O)cc1 do in these assays?
PABP polyA inh: -4; Yeast UUG start: -23; Rce1 inh: inactive; Env fusion inh: -7; eIF4H inh: -7; MT1-MMP act inh: 6; MT1-MMP act inh RFP: 0

How did COc1ccccc1NS(=O)(=O)c1ccc2[nH]c(=O)[nH]c2c1 do in these assays?
PABP polyA inh: 0; Yeast UUG start: 8; Rce1 inh: inactive; Env fusion inh: 1; eIF4H inh: 5; CSC inhib: 12; MT1-MMP act inh: 0; MT1-MMP act inh RFP: 0

How did Cc1ccc(OCC(=O)N2c3ccccc3CC2C)c([N+](=O)[O-])n1 (stereo not given) do in these assays?
PABP polyA inh: 5; Rce1 inh: inactive; Env fusion inh: 3; eIF4H inh: 0; CSC inhib: 5; MT1-MMP act inh: 6; MT1-MMP act inh RFP: 8

Ordered by heavy-atom count (rising): some entries from above.
How did COc1ccc(Oc2nc3ccccc3n(C)c2=O)cc1 do in these assays?
PABP polyA inh: -4; Yeast UUG start: -23; Rce1 inh: inactive; Env fusion inh: -7; eIF4H inh: -7; MT1-MMP act inh: 6; MT1-MMP act inh RFP: 0

How did COc1ccccc1NS(=O)(=O)c1ccc2[nH]c(=O)[nH]c2c1 do in these assays?
PABP polyA inh: 0; Yeast UUG start: 8; Rce1 inh: inactive; Env fusion inh: 1; eIF4H inh: 5; CSC inhib: 12; MT1-MMP act inh: 0; MT1-MMP act inh RFP: 0

How did Cc1ccc(OCC(=O)N2c3ccccc3CC2C)c([N+](=O)[O-])n1 (stereo not given) do in these assays?
PABP polyA inh: 5; Rce1 inh: inactive; Env fusion inh: 3; eIF4H inh: 0; CSC inhib: 5; MT1-MMP act inh: 6; MT1-MMP act inh RFP: 8

These rows are one share of the data; the hit share may differ from the screen's.
